rRNA inh HTS = inhibitors of bacterial rRNA selective over humanized ribosomes. E. coli WT GFP vs humanized-ribosome RFP mutants, fluorescence, 24 h; hits give low values; DMSO median 0, no signal -100. GFP signal change (wild-type ribosome), % (concentration not given with the values). 350,000 tested, 1.6% active;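 active means significant combined selectivity score with lowered wild-type GFP, culture density cut under 30%, mutant RFP and density less affected; inactive means any of these conditions unmet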; further: one replicate is shown; some compounds called inactive have numbers as strong as hits
rRNA inh HTS OD600 = further read-out of rRNA inh HTS, marked with its call; OD600 change, %; measured here: OD600 growth;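 optical density of the mix in the first replicate; 0 = DMSO median and -100 = no signal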
rRNA inh HTS RFP = also measured in rRNA inh HTS; calls as there; RFP signal change, %; measured here: RFP humanized mutant strains;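 first replicate; 0 = DMSO median and -100 = no signal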
* = called active by the depositor; & = joins results of further samples. This is a subset. The share of hits here may be higher or lower than overall.

| rRNA inh HTS | rRNA inh HTS OD600 | rRNA inh HTS RFP | SMILES |
| --- | --- | --- | --- |
| -0.7 | 17.9 | 1.0 | O=C(Cc1cccnc1)N1CC(=O)N2[C@H](CO)[C@@H](c3ccc(C#CC4CC4)cc3)[C@@H]2C1 |
| -2.7 | 1.7 | -1.6 | O=C(Nc1ccccc1)N1C[C@H]2[C@@H](c3ccccc31)[C@H](CO)N2Cc1ccccc1 |
| -1.3 | 2.7 | -0.7 | CC(=O)N1[C@@H](CO)[C@H](c2ccccc2)[C@@H]1CN(CC(C)C)C(=O)c1ccccn1 |
| 0.9 | -2.9 | -0.1 | O=C(Nc1ccc2c(c1)[C@@H]1C[C@@H](CC(=O)N3CCCCC3)O[C@H](CO)[C@@H]1O2)Nc1ccccc1F |
| 11.1 | 13.3 | 7.5 | Cc1ccc(S(=O)(=O)NCc2ccc3c(c2)OCO3)cc1 |
| -4.2 | -0.6 | -0.9 | C[C@@H]1CN([C@H](C)CO)C(=O)c2cc(NC(=O)Nc3cccc4ccccc34)ccc2O[C@@H](C)CCCCO[C@@H]1CN(C)S(=O)(=O)c1cccs1 |
| -58.6 | -76.8 | -11.8 | O=C(Nc1ccc(Cl)c(Cl)c1)N[C@H]1CC[C@@H](CCn2cc(C3CCCC3)nn2)O[C@@H]1CO |
| 0.6 | 8.3 | -1.8 | C[C@H](NC(=O)[C@H]1[C@H](CO)[C@H]2Cn3c(cccc3=O)[C@H]2N1C(=O)C1CC1)c1ccccc1 |
| -52.7&-58.2 | -78.7&-76.3 | -12.3&-9.5 | O=C(NC1CCCCC1)N1C[C@@H]2N[C@H](C1)C2c1ccc(-c2ccc(F)cc2)cc1 (stereo partly specified) |
| 4.3 | -9.8 | 1.9 | Cc1c(C(=O)NCc2ccc([N+](=O)[O-])cc2)sc(=O)n1Cc1ccc(-c2ccccc2)cc1 |
| 2.9 | 6.6 | 0.8 | CCCNC(=O)N1CC2(C1)CN(C(=O)NC1CCCC1)[C@H](CO)c1[nH]c3cc(OC)ccc3c12 |
| 6.8 | 8.3 | 0.4 | COc1ccc2c3c([nH]c2c1)[C@@H](CO)N(C(=O)CN1CCOCC1)CC31CN(C(C)=O)C1 |
| 10.4 | 10.1 | 1.5 | O=C(OCc1ccccc1)N1CCC2CC1c1cc(/C=C/CCCSc3ncccn3)ccc12 (stereo unspecified) |
| -8.2 | -11.4 | -2.6 | COc1ccc2c3c(n(C)c2c1)[C@@H](CO)N(C(=O)c1ccccn1)CC31CN(C(=O)Cc2ccccc2)C1 |
| -1.3 | -1.8 | 0.8 | C[C@H]1CCCCO[C@@H](CN(C)C(=O)C2CCCCC2)[C@@H](C)CN([C@@H](C)CO)C(=O)c2cc(NS(C)(=O)=O)ccc2O1 |
| -1.8 | -3.8 | -2.8 | C[C@H](CO)N1C[C@H](C)[C@H](CN(C)Cc2ccccc2)OCCCC[C@H](C)Oc2ccc(N(C)C)cc2C1=O |
| -23.2* | -10.5* | -0.7* | CC12CCC(/C(=C/NNc3ccc([N+](=O)[O-])cc3[N+](=O)[O-])C1=O)C2(C)C (stereo unspecified) |
| -2.4 | 4.3 | -0.7 | COc1ccc(NC(=O)Nc2ccc3c(c2)C(=O)N([C@@H](C)CO)C[C@H](C)[C@@H](CN(C)Cc2ccc(C(=O)O)cc2)OCCCC[C@@H](C)O3)cc1 |
| 2.9 | -8.9 | -2.8 | O=C1c2cccc3cccc(c23)C(c2nc3ccccc3[nH]2)N1C1CC1 (stereo unspecified) |
| -1.1 | 1.4 | 2.4 | Cc1ccc(S(=O)(=O)Nc2ccc3c(c2)CC(=O)N([C@H](C)CO)C[C@H](C)[C@H](CN(C)Cc2ccc(C(F)(F)F)cc2)O3)cc1 |
| 6.3 | 4.2 | 0.5 | Cc1noc(C)c1NC(=O)Nc1ccc2c(c1)CC(=O)N([C@H](C)CO)C[C@@H](C)[C@@H](CN(C)C(=O)Nc1ccc3c(c1)OCO3)O2 |
| 0.5 | 1.5 | -2.8 | C[C@H]1COCc2cnnn2CC[C@@H](Cc2ccccc2)C(=O)N1 |
| 12.1 | 14.0 | 1.4 | CN1CCN(C2CN(Cc3cn(Cc4ccc(F)cc4)nn3)S(=O)(=O)C2)CC1 (stereo unspecified) |
| 0.6 | 4.0 | 0.2 | O=C(C[C@H]1CC[C@H](NC(=O)Nc2cc(F)ccc2F)[C@H](CO)O1)NCc1ccncn1 |
| -0.4 | -0.6 | -0.8 | COc1ccc(NC(=O)Nc2ccc3c(c2)C(=O)N([C@@H](C)CO)C[C@H](C)[C@@H](CN(C)C(=O)Nc2cccc4ccccc24)O3)cc1 |
| -15.7 | -26.0 | 16.7 | C[C@@H]1CN([C@@H](C)CO)S(=O)(=O)c2ccc(-c3ccccc3)cc2O[C@H]1CN(C)CC1CCCC1 |
| 4.0 | 9.5 | -2.2 | C[C@H](CO)N1C[C@H](C)[C@H](CN(C)S(C)(=O)=O)Oc2ccc(NS(=O)(=O)c3cn(C)cn3)cc2CC1=O |
| -5.7 | -4.8 | -4.7 | COc1ccc(N2C[C@H](CSC)[C@@H](CC(=O)Nc3ccccc3)C2=O)cc1 |
| -11.4 | -23.8 | 3.9 | CCCNC(=O)c1cc(C2CCCCN2S(=O)(=O)Cc2cccc(C(F)(F)F)c2)on1 (stereo unspecified) |
| 1.5&24.6 | 2.1&14.3 | -1.1&2.9 | C[C@H]1CN([C@@H](C)CO)C(=O)CCCn2cc(nn2)CO[C@@H]1CN(C)S(=O)(=O)c1cn(C)cn1 |
| 1.1 | 1.9 | 0.4 | C[C@@H]1CN([C@H](C)CO)C(=O)CCCn2cc(nn2)CO[C@@H]1CN(C)C |
| 5.3 | 9.5 | -4.0 | O=C(c1ccc(F)cc1)N1CC(=O)N2[C@H](C1)[C@@H](c1ccc(C#CC3CCCCC3)cc1)[C@@H]2CO |
| 1.3 | 10.2 | -0.3 | C[C@H]1CCCCO[C@H](CN(C)C(=O)c2ccncc2)[C@@H](C)CN([C@@H](C)CO)C(=O)c2cc(NS(C)(=O)=O)ccc2O1 |
| -0.7 | 5.3 | -4.2 | C[C@H]1CN([C@@H](C)CO)C(=O)c2cc(-c3cccc(F)c3)cnc2O[C@H]1CN(C)Cc1ccccn1 |
| -2.8 | -6.0 | 2.6 | O=C(C[C@@H]1C[C@H]2c3cc(NC(=O)Nc4ccccc4F)ccc3O[C@H]2[C@@H](CO)O1)NCc1ccc2c(c1)OCO2 |
| -6.6 | -3.5 | 0.1 | CCC(=O)N(C)C[C@H]1Oc2cc(-c3ccc(C#N)cc3)ccc2S(=O)(=O)N([C@@H](C)CO)C[C@H]1C |
| -4.6 | -6.4 | 6.1 | C[C@@H]1CN([C@H](C)CO)C(=O)c2c(c3ccccc3n2C)-c2ccccc2CO[C@@H]1CN(C)Cc1ccc2c(c1)OCO2 |
| -1.6 | -2.6 | 0.5 | C[C@@H]1CN([C@@H](C)CO)C(=O)c2cc(C#CCc3ccccc3)cnc2O[C@@H]1CN(C)C(=O)Cc1cccnc1 |
| -1.8 | 4.6 | 0.5 | C/C=C/c1ccc([C@@H]2[C@@H](CO)N(C(=O)c3cnccn3)C23CN(C(=O)C2CCC2)C3)cc1 |
| 5.1 | -0.3 | 0.1 | COc1ccc(S(=O)(=O)Nc2ccc3c(c2)C(=O)N([C@H](C)CO)C[C@H](C)[C@@H](CN(C)S(=O)(=O)c2cn(C)cn2)O3)cc1 |
| -0.3 | 5.2 | 1.0 | O=S(=O)(NCC[C@@H]1CC[C@@H](NS(=O)(=O)c2cccc(F)c2)[C@H](CO)O1)c1cccc(F)c1 |
| -1.9 | 0.4 | 1.0 | COc1ccc(CN(C)C[C@H]2Oc3ccc(NS(=O)(=O)c4c(C)noc4C)cc3CC(=O)N([C@H](C)CO)C[C@@H]2C)cc1 |
| 0.1 | 5.6 | -0.7 | CC(C)NC(=O)Nc1ccc2c(c1)C(=O)N(C)[C@@H]1CC[C@H](CC(=O)NCC(F)(F)F)O[C@H]1CO2 |
| 3.5 | -1.0 | -2.9 | CO[C@H]1CN(C)C(=O)c2cc(NC(C)=O)ccc2OC[C@@H](C)N(Cc2ccccc2C(=O)O)C[C@H]1C |
| 0.6 | 7.0 | 0.9 | COc1ccc(NC(=O)N(C)C[C@H]2Oc3ccc(NC(=O)CCN4CCOCC4)cc3C(=O)N([C@H](C)CO)C[C@H]2C)cc1 |
| -2.2 | -0.6 | -2.1 | CCCNC(=O)Nc1ccc2c(c1)C(=O)N(C)C[C@@H](OC)[C@@H](C)CN(CCC)[C@H](C)CO2 |
| 4.6 | 1.0 | 2.1 | CCCC(=O)Nc1ccc2c(c1)C(=O)N(C)C[C@H](OC)[C@@H](C)CN(CCC(F)(F)F)[C@H](C)CO2 |
| -3.7 | -18.6 | 9.1 | CC(C)CC#Cc1ccc2c(c1)O[C@@H](CN(C)C(=O)c1ccccc1F)[C@H](C)CN([C@H](C)CO)S2(=O)=O |
| 18.8 | 15.0 | 1.1 | COC(=O)[C@]12CCCCC=C1N(Cc1ccc3c(c1)OCO3)C(=O)[C@H](CC(=O)NCC13CC4CC(CC(C4)C1)C3)C2 |
| -0.1 | 0.4 | -0.4 | C[C@H]1CN([C@@H](C)CO)C(=O)c2cccc(NC(=O)c3cnccn3)c2O[C@@H]1CN(C)S(=O)(=O)c1cn(C)cn1 |
| 4.2 | 9.8 | -3.1 | CC1=CC2(C)NC(=O)C(C)C12 (stereo unspecified) |
| 3.3 | 1.9 | 1.1 | CNC(=O)C[C@@H]1CC[C@@H]2[C@H](COc3ccc(NC(=O)c4cnccn4)cc3C(=O)N2C)O1 |
| -0.3 | 1.0 | -0.7 | CCN(C[C@@H]1[C@H](c2ccccc2)[C@H](CO)N1C(=O)COC)S(C)(=O)=O |
| 3.9 | 6.3 | 0.6 | CN(C)C(=O)C[C@@H]1C[C@H]2c3cc(NC(=O)Nc4ccc(F)cc4)ccc3O[C@H]2[C@@H](CO)O1 |
| -0.1 | 0.2 | -1.7 | C[C@@H]1CCCCO[C@H](CN(C)C(=O)Nc2ccc3c(c2)OCO3)[C@@H](C)CN([C@@H](C)CO)C(=O)c2cc(NS(C)(=O)=O)ccc2O1 |
| 0.8 | 2.2 | -1.6 | C[C@H](NC(=O)C[C@@H]1C=C[C@H](NC(=O)C2CCC2)[C@H](CO)O1)c1ccccc1 |
| 4.9 | -8.1 | 7.4 | Cc1cccc(-c2ccc([C@H]3[C@H]4CN(C(=O)NC(C)C)CCCCN4[C@H]3CO)cc2)c1 |
| -4.4 | -9.3 | -2.8 | COc1ccc(-c2cn(CC[C@H]3CC[C@H](NS(=O)(=O)c4ccccc4C)[C@H](CO)O3)nn2)cc1 |
| 2.6 | 21.1 | -3.0 | COc1ccc(S(=O)(=O)NC(=O)C2(C)CCN2C(=O)COc2ccc(Cl)cc2)cc1 (stereo unspecified) |
| 0.8 | 1.4 | -1.1 | CCNC(=O)[C@H]1[C@H](CO)[C@H]2Cn3c(ccc(/C=C/c4ccccc4)c3=O)[C@@H]1N2CC |

Some of the entries so far, field by field:
C[C@H]1CN([C@@H](C)CO)C(=O)c2cccc(NC(=O)c3cnccn3)c2O[C@@H]1CN(C)S(=O)(=O)c1cn(C)cn1
  rRNA inh HTS: -0.1 | rRNA inh HTS OD600: 0.4 | rRNA inh HTS RFP: -0.4

CC1=CC2(C)NC(=O)C(C)C12 (stereo unspecified)
  rRNA inh HTS: 4.2 | rRNA inh HTS OD600: 9.8 | rRNA inh HTS RFP: -3.1

CNC(=O)C[C@@H]1CC[C@@H]2[C@H](COc3ccc(NC(=O)c4cnccn4)cc3C(=O)N2C)O1
  rRNA inh HTS: 3.3 | rRNA inh HTS OD600: 1.9 | rRNA inh HTS RFP: 1.1

CCN(C[C@@H]1[C@H](c2ccccc2)[C@H](CO)N1C(=O)COC)S(C)(=O)=O
  rRNA inh HTS: -0.3 | rRNA inh HTS OD600: 1.0 | rRNA inh HTS RFP: -0.7

(cont.)
| rRNA inh HTS | rRNA inh HTS OD600 | rRNA inh HTS RFP | SMILES |
| --- | --- | --- | --- |
| -0.3 | -10.3 | -4.1 | CCCC#Cc1ccc2c(c1)O[C@H](CN(C)C(=O)c1cccnc1)[C@@H](C)CN([C@H](C)CO)S2(=O)=O |
| 1.8 | 2.4 | -2.9 | Cc1ccc(S(=O)(=O)N(C)C[C@H]2Oc3ccc(NC(=O)Cn4cnnn4)cc3C(=O)N([C@H](C)CO)C[C@@H]2C)cc1 |
| -10.0 | -34.0 | -0.2 | O=C(C[C@@H]1C[C@H]2c3cc(NS(=O)(=O)c4ccc(F)cc4)ccc3O[C@H]2[C@@H](CO)O1)N1CCc2ccccc2C1 |
| 4.3 | 10.3 | -1.9 | C[C@@H]1CN([C@H](C)CO)C(=O)c2cc(NC(=O)Nc3ccc(C(F)(F)F)cc3)ccc2O[C@@H]1CN(C)S(=O)(=O)c1ccc(F)cc1 |
| -6.1 | 8.6 | -5.0 | C[C@@H]1CN([C@H](C)CO)C(=O)c2cc(NC(=O)Nc3cccc4ccccc34)ccc2O[C@@H](C)CCCCO[C@@H]1CN(C)S(=O)(=O)c1ccccc1 |
| 1.0 | 0.3 | -0.3 | N#C[C@@H]1[C@H](c2ccc(-c3cccnc3)cc2)[C@@H](CO)N1C(=O)C1CC1 |
| 6.4 | 5.9 | 0.1 | C[C@@H]1CN([C@@H](C)CO)C(=O)c2cc(NC(=O)NC3CCCCC3)ccc2O[C@@H](C)CCCCO[C@H]1CN(C)C(=O)Nc1cccc2ccccc12 |
| -20.7 | -50.7 | 21.6 | C[C@H]1CN([C@@H](C)CO)S(=O)(=O)c2ccc(C3=CCCCC3)cc2O[C@@H]1CN(C)C(=O)C1CCC1 |
| 8.3 | 13.3 | -5.2 | Cc1ccc(C)c(NC(=O)C2(C)CCN2C(C)C)c1 (stereo unspecified) |
| 0.8 | 3.2 | 1.2 | C[C@@H]1CN([C@H](C)CO)C(=O)c2ccccc2-c2ccccc2CO[C@@H]1CN(C)Cc1ccc2c(c1)OCCN2C |
| 1.5 | 5.6 | -1.9 | CCCNC(=O)[C@@H]1[C@@H](CO)[C@@H]2Cn3c(ccc(-c4ccccc4)c3=O)[C@H]1N2C(=O)CC1CC1 |
